TRPML1 agonist: qHTS for Agonists of the Human Mucolipin Transient Receptor Potential 1 (TRPML1); activation, % (no concentration beside the values); Mucolipin-1 (Homo sapiens), Q9GZU1; hit rate 0.12% among 410,000; AID 624414, 2012; TRPML1-expressing cells, Ca2+ dye fluorescence, FDSS; host cell line not named in the record; reference of the full effect not given here; in the data active = activation above about 50%; inconclusive = about 30% to 50%; inactive = below about 30%; also: 0% is about no effect; the text of the record puts the active cut at 80%
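Agonist activity was taken from a 110 s kinetic Ca2+ dye read on the FDSS after pinning compounds onto TRPML1-DL cells. The cells were seeded at 1,500/well with Tet inducer, incubated about 16 h, then dye-loaded at room temperature.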
CtBP-E1A blk: qHTS Assay for Inhibitors of the CtBP/E1A Interaction; activity change, % (test concentration not listed); AID 651724, 2012; hit rate 0.49% among 340,000; AlphaScreen GST-E1A/His-CtBP binding, 1536-well; active compounds read low; control for the full effect not named in the record; CtBP / adenovirus E1A interaction (AlphaScreen); in the data active means activity change below about -65%; inconclusive means about -30% to -65%; inactive means above about -30%; also: % is scaled to controls: 0 for no effect and ±100 for the full control effect
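In 5 uL wells, 23 nL compound meets equimolar GST-E1A and His-CtBP (5X stock 125 nM each) for 2 h, 37 °C. Beads (5X, 50 ug/mL) then 1 h, 37 °C, dark.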
TRPML1 blocker: qHTS for Inhibitors of the Human Mucolipin Transient Receptor Potential 1 (TRPML1); TRPML1-inducible cells, Ca2+ dye fluorescence, FDSS; active compounds read low; inhibition of EC80 agonist-evoked calcium signal; AID 624415, 2012; Mucolipin-1 (Homo sapiens), Q9GZU1; hit rate 0.02% among 390,000; activity change, negative = inhibition, % (no concentration beside the values); in the data active means activity change below about -50%; inconclusive means about -30% to -50%; inactive means above about -30%;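 also: stimulus is agonist 54-4 at its EC80 concentration; % is scaled to controls: 0 for no effect and ±100 for the full control effect; compound concentration not given in the record; the text of the record puts the active cut at -80%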
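Calcium fluorescence in TRPML1-DL cells induced overnight with Tet: a 110 s read after compound pin addition, then a 110 s antagonist read after challenge with 54-4 at 4 uM final (EC80).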
Six1-Eya2 inh: qHTS Assay for Inhibitors of the Six1/Eya2 Interaction | activity change, % (test concentration not listed) | hit rate 0.56% among 360,000 | AlphaScreen GST-Six1/His-Eya2 binding, biochemical; active compounds read low; control for the full effect not named in the record | Homeobox protein SIX1 (Homo sapiens) + Protein phosphatase EYA2 (Homo sapiens), …; in the data active = activity change below about -65%; inconclusive = about -30% to -65%; inactive = above about -30%; also: % is scaled to controls: 0 for no effect and ±100 for the full control effect
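GST-Six1 + His-Eya2 (5X stock: 250/500 nM); Tris pH 8.0, 300 mM NaCl, 0.05% BSA, 0.02% Tween 20; GSH donor/Ni acceptor beads; 1 h 37 °C dark; AlphaScreen readout.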
D2 PAM: Beta-Arrestin HTS for Positive Allosteric Modulators of the Human D2 Dopamine Receptor: Potentiators; D(2) dopamine receptor (Homo sapiens), P14416; DiscoveRx D2 beta-arrestin cells, luminescence, 90 min; 100% = 57 uM dopamine signal; potentiation, % (no concentration beside the values); hit rate 0.23% among 360,000; AID 624464, 2012; active = potentiation of 50% or more; inconclusive = 30% to 50%; inactive = 30% or less;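 also: compound concentration not given in the record; tested on top of an EC20 dose of dopamine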
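PathHunter D2 cells, attached overnight at 37 deg C, received compound in DMSO plus dopamine at EC20 (50 nM final) for 90 min at 37 deg C. Beta-arrestin recruitment was read as luminescence after 1 h with detection reagent at ambient temperature.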
TRPV1 potentiator: HTS Assay for Compounds that Act as Potentiators of the Vanilloid Receptor 1. Transient receptor potential cation channel subfamily V member 1 (Homo sapiens), Q8NER1. TRPV1-expressing cells, Fluo-8 calcium influx, capsaicin EC20 potentiation; host cell line not named in the record; control for the full effect not named in the record. potentiation, % at 8.33 µM. hit rate 0.02% among 320,000; active means potentiation above 80%; inconclusive means 30% to 80%; inactive means below 30%; also: 0% is about no effect
Target sequence (Q8NER1 whole entry, looked up): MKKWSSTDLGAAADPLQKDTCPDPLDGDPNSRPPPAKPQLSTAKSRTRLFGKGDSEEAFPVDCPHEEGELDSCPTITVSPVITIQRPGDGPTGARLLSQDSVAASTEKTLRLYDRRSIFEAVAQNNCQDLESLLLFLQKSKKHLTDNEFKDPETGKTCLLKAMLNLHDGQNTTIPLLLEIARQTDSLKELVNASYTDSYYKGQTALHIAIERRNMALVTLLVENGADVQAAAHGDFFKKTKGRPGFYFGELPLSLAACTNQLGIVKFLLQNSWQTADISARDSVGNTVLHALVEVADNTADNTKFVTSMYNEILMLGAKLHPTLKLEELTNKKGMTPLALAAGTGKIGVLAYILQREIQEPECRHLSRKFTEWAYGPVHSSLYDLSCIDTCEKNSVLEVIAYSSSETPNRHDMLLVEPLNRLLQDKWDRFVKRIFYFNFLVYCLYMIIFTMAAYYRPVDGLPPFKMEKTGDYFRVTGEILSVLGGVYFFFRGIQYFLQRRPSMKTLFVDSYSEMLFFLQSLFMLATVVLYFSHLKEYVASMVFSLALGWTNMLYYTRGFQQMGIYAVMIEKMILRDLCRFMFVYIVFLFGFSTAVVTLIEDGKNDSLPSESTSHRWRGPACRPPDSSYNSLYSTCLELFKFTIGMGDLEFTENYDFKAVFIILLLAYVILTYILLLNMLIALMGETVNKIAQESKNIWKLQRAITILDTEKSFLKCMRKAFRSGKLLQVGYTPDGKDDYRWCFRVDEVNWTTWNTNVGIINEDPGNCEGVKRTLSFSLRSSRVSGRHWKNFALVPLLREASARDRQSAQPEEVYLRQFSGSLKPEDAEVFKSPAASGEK
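Cells expressing TRPV1 were dye-loaded with Fluo-8 and read kinetically: 10 s baseline, 3 min after compound (agonist portion), then 2 min after EC20 capsaicin (allosteric enhancer portion). Calcium-bound dye fluorescence at 480/520 nm.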
* hit, by the source's call; u = inconclusive; x = no result given; & = joins results of further samples. An unsorted share of the library. About 0.95% of those tested had a hit in this group.

canonical_smiles	TRPML1 agonist	CtBP-E1A blk	TRPML1 blocker	Six1-Eya2 inh	D2 PAM	TRPV1 potentiator
O=[N+]([O-])c1ccc(-c2cc(-c3ccc(Cl)cc3)n[nH]2)cc1	-0.6	0	33	21	-1	-17
O=S1(=O)CC(N2CCN(CCO)CC2)CN1Cc1cn(Cc2cccc(Cl)c2)nn1 (stereo not drawn)	-0.3	-1	x	-10	x	x
C/C(=N\NC(=O)C1(C)CC1(Br)Br)c1ccc(NC(=O)C2CCC2)cc1 (stereo not drawn)	-0.1	-2	24	5	-17	-4
COc1cc(Cl)c(CN2CCC(CCC(=O)NC3CC3)CC2)cc1OC	-0.7	3	-10	0	1	11
O=C(CNCC1CCCO1)Nc1ccccc1-n1cccc1 (stereo not drawn)	0.3	0	17	-2	7	2
COc1cccc(CCc2nnc(CCC(=O)NC(C)c3c(C)nn(C)c3C)o2)c1 (stereo not drawn)	0.2	17	-10	6	-5	-3
COc1ccccc1OCCNC(=O)Nc1cc(F)c(F)cc1Cl	0.0	2	46	10	-7	1
c1ccc(-[n+]2nc(Nc3cccc4ccccc34)sc2-c2c3ccccc3cc3ccccc23)cc1	2.0	u	64	u	-26	-5
COc1cccc(C(=O)NNC(=O)/C=C/c2ccccc2)c1	-0.6	0	-11	0	5	3
COc1ccc(-c2ccc(C(=O)Nc3cccc(NS(C)(=O)=O)c3)c3occc23)c(C)c1	0.0	-16	x	-15	4	x
OCCn1c(-c2ccccc2)csc1=Nc1ccccc1	-1.0	-21	3	-27	-12	-1
COc1ccccc1/C=N/NC(=O)c1ccc(Cn2nc([N+](=O)[O-])cc2C)cc1	-0.5	2	20	-13	-2	u
CCC1CCCCN1C(=O)COc1ccccc1NC(C)=O (stereo not drawn)	0.9	10	-7	3	-13	5
CCC(C)OC(=O)C1=C(C)OC23OC(N)=C(C#N)C12C(=O)c1ccccc13 (stereo not drawn)	4.0	-2	38	-2	1	-8
Cc1oc(-c2ccccc2F)nc1CN1CCC(C(=O)NCc2cccnc2)CC1	0.1	0	-5	-1	-11	0
O=C(Nc1cccc(Cl)c1)c1cccc(Oc2ccc([N+](=O)[O-])cc2Cl)c1	0.7	x	53	-7	-5	2
Cc1ccccc1Nc1nnc(SCC(=O)c2cc3ccccc3o2)s1	1.4	-11	15	-11	-2	16
CC(=O)CC(C)(C)Nc1nc2ccc([N+](=O)[O-])cc2o1	0.1	-1	21	-2	-6	-5
Cc1ccc(-n2c(-c3cnccn3)n[nH]c2=S)cc1	3.0	8	-2	5	-4	0
CCCn1c2ccccc2c2nc3ccccc3nc21	-0.9	47	-5	91	-13	-1
Cc1nn(C)c(C(=O)N2CCc3ccccc32)c1Br	-0.1	11	23	6	-11	19
C[C@H](NC(=O)c1nc[nH]c1C(=O)N[C@@H](C)c1ccccc1)c1ccccc1	1.5	3	2	-2	-4	19
Cc1nc2ncnn2c(C)c1CCC(=O)NCCc1ccccc1	2.1	0	40	3	-1	3
CCC1(c2ccc(F)cc2)NC(=O)N(CC(=O)Nc2ccc(N3CCCCC3)cc2)C1=O (stereo not drawn)	12	u	10	-22	-4	-11
O=C(CSc1nnnn1C1CCCCC1)NCc1cccc(C(=O)O)c1	-0.6	3	19	0	4	u
Cn1c(NC(=O)C[n+]2cc(-c3ccccc3)n3c2CCC3)cc(=O)n(C)c1=O	2.2	-1	15	0	-31	-20
NC(=O)c1ccsc1NC(=O)CSc1nnc2ccccn12	0.0	x	0	9	5	16
Nc1ccc2ccc(O)cc2c1	-0.5	-29	9	-28	0	x
CCN1CCN(C(=O)c2ccc3c(=O)n(CCC4=CCCCC4)c(=O)[nH]c3c2)CC1	0.9	-10	24	-8	0	-6
Cc1ccc(N2CCC(N3CCN(C4CCCCC4)C(CCO)C3)CC2)cc1 (stereo not drawn)	-0.3	1	-11	7	-2	1

Entries of single compounds, quoted from the list.
`COc1cc(Cl)c(CN2CCC(CCC(=O)NC3CC3)CC2)cc1OC` in the list: TRPML1 agonist: -0.7; CtBP-E1A blk: 3; TRPML1 blocker: -10; Six1-Eya2 inh: 0; D2 PAM: 1; TRPV1 potentiator: 11
`Nc1ccc2ccc(O)cc2c1` in the list: TRPML1 agonist: -0.5; CtBP-E1A blk: -29; TRPML1 blocker: 9; Six1-Eya2 inh: -28; D2 PAM: 0; TRPV1 potentiator: x

Continuation.
canonical_smiles	TRPML1 agonist	CtBP-E1A blk	TRPML1 blocker	Six1-Eya2 inh	D2 PAM	TRPV1 potentiator
Fc1ccc(N2Cc3ccsc3C=N2)cc1	-0.8	7	4	0	-2	13
COc1ccc(/C=N\NC(=O)C2COc3ccccc3O2)cc1O (stereo not drawn)	x	-11	x	-11	-8	-36
COc1ccc2nc(/N=C/c3cccc(OC)c3O)sc2c1	-0.1	u	-3	-27	-8	8
COCCNC(=O)c1ccc(C(=O)C(=O)c2ccccc2)cc1	0.0	13	11	4	-25	-12
Cc1cc(C(=O)Nc2ccc(CC(=O)O)cc2)c(C)o1	1.5	-14	4	0	0	10
COCCn1c(=N)c(S(=O)(=O)c2ccc(Br)cc2)cc2c(=O)n3ccccc3nc21	2.9	x	-15	-6	-4	15
CC(Sc1n[nH]c(-c2cccs2)n1)C(=O)N1CCCC1 (stereo not drawn)	-0.8	0	-5	-1	-6	x
CCCCCCNCc1ccc(Br)cc1	0.6	-2	-4	11	-27	-4
O=C(NCc1cccs1)c1cccnc1Cl	0.9	-2	-1	3	6	3
CCc1ccc(OC(C)c2nnc(SCC(=O)Nc3ncccc3C)n2C)cc1 (stereo not drawn)	1.2	-3	-4	0	-14	4
Cc1ccc(C(C(=O)NC2CCCCC2)N(C(=O)c2csnn2)c2ccccc2F)o1 (stereo not drawn)	-0.2	2	7	-5	-6	-6
CCCOc1ccc(OCCSc2ncccn2)cc1	-0.2	16	4	16	-7	20
NC(=O)c1cccc(-c2cnc(N)c(C(=O)c3cccnc3)n2)c1	0.0	u	24	u	-6	x
CC(C)C(NC(=O)c1ccco1)C(=O)OCC(=O)c1ccccc1 (stereo not drawn)	-0.3	8	-4	7	-16	5
CCOC(=O)c1cnc(SSc2ncc(C(=O)OCC)c(N)n2)nc1N	0.2	x	-9	15	-7	-29
COc1ccc(C(=O)c2ccccc2Cl)cc1	1.9	17	7	10	-6	-4
Cc1cc(OCC(=O)Nc2ccc3oc(=O)ccc3c2)ccc1Cl	0.5	7	12	-1	4	2
CCN(CC(=O)NCc1ccc(Cl)cc1)C(=O)c1oc2ccccc2c1C	1.5	6	6	3	0	14
O=C(CCl)NC1(C(F)(F)F)C(=O)Nc2c1c(=O)[nH]c(=O)n2-c1ccccc1 (stereo not drawn)	0.5	9	-12	-2	-1	4
COc1ccc2nc(N3CCCC(C(=O)NCCCN4C(C)CCCC4C)C3)sc2c1 (stereo not drawn)	-0.8	-7	0	1	-1	-5
CCN(Cc1nc2cc(Cl)ccc2c(=O)[nH]1)C(=O)c1cccc(NC(=O)c2cccs2)c1	-0.6	x	7	-12	2	4
Nc1ccc2nc(-c3ccc(Cl)cc3)[nH]c2c1	-1.4	2	-10	-12	2	-18
CCCCCCC(=O)Nc1ccc(S(=O)(=O)Nc2onc(C)c2C)cc1	-0.6	x	-6	3	-22	x
C=CCn1c(SCc2c(C)noc2C)nc2cc(C(=O)O)ccc2c1=O	0.2	-2	6	1	-11	7
N#Cc1ccc(Oc2ccc(/C=N/O)cn2)cc1	1.1	-2	12	-1	-8	u
COc1ccc(S(=O)(=O)Nc2ccccc2C(=O)N2CCCC2)cc1C	-0.5	10	-18	15	-5	-13
COc1ccc(C(=O)NCCn2cc(SCC(=O)NCc3ccco3)c3ccccc32)cc1	1.1	-5	22	-3	-1	-43
COc1ccc(CN(CC(=O)NCCc2ccccc2)C(=O)CCC(=O)Nc2cc(C)ccn2)cc1	0.3	10	18	-12	-11	5
O=C(CCl)NC(Cc1ccccc1)C(=O)OCC(=O)c1ccc(-c2ccccc2)cc1 (stereo not drawn)	3.9	6	16	4	-19	x
N#C/C(=C/c1ccccc1OCc1ccc(F)cc1)c1ccc(C(=O)O)cc1	0.5	9	27	-4	-5	7

Next part.
canonical_smiles	TRPML1 agonist	CtBP-E1A blk	TRPML1 blocker	Six1-Eya2 inh	D2 PAM	TRPV1 potentiator
COc1ccc(C(=O)NC2CC2)cc1OC1CCN(C/C=C/c2ccccc2)CC1	-0.4	1	11	0	-37	2
CCCOc1cccc(C2/C(=C(/O)c3ccc(F)cc3)C(=O)C(=O)N2CCN(C)C)c1 (stereo not drawn)	6.9	-4	8	3	-21	11
CCOc1ccc(-c2cccc(NC(=O)COc3ccccc3)c2)nn1	2.2	x	1	1	-7	21
Cc1cccc(NC(=S)N2CCN(c3ccccc3F)CC2)c1C	0.2	-3	-7	-3	-4	-19
Cc1cc(COc2ccccc2)oc1C(=O)O	-0.7	x	-7	10	0	6
CN(C)S(=O)(=O)c1ccc(C(=O)NC(=O)CSc2ccccc2)cc1	1.9	3	4	-5	-4	3
O=C1NC(=O)C2(COC(c3ccncc3)OC2)S1 (stereo not drawn)	1.7	-6	-1	6	-2	-10
O=C(C1CCC1)N(CCc1ccccc1)Cc1nc2ccccc2c(=O)[nH]1	4.2	-1	17	-1	10	6
CC/C=C/C(=O)N1CC2(CC(c3cccc(NC(=O)CCCCC)c3)=NO2)C[C@H]1C(N)=O (stereo partly drawn)	-0.5	5	-16	-2	0	7
Cc1cc2c(cc1C)N[C@]1(C[C@H]3CCCC(=O)N4CC[C@@H](C1)[C@@H]34)C(=NC(C)(C)CC(C)(C)C)N2	-0.5&-0.7	1	11	u	-49	x
CCOCCCN(C(=O)c1snc(C(N)=O)c1N)C(C(=O)NC1CCCC1)c1ccc(F)cc1 (stereo not drawn)	0.4	26	7	11	-2	-3
Cc1cc(C(=O)CSc2ccccc2)cc(C)c1O	2.2	4	11	-9	6	-11
O=C(CSc1nccn1-c1cccc(Cl)c1)NO	x	0	x	0	-4	22
Cn1cc(C(=O)N2CCCCCC2)c(=O)c2cc(S(=O)(=O)N3CCCCC3)ccc21	1.3	x	-2	2	-6	-1
O=C1CC(=O)N(CCc2ccccc2)C(=O)N1CCc1ccccc1	-0.5	2	9	-1	1	-24
Cc1ccc(C(=O)Nc2cccc(-c3ccc(N4CCOCC4)nn3)c2)cc1	-0.6	-24	-7	-26	4	u
